Screening data: PubChem BioAssay, several laboratories
rRNA inh HTS – inhibits bacterial ribosomal RNA function over humanized ribosomes. E. coli WT GFP vs humanized-ribosome RFP mutants, fluorescence, 24 h; active compounds read low; DMSO median 0, no signal -100. GFP signal change (wild-type ribosome), % (concentration not given with the values). 350,000 tested, 1.6% active. AID 720706;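 active means significant combined selectivity score with lowered wild-type GFP, culture density cut under 30%, mutant RFP and density less affected; inactive means any of these conditions unmet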; further: one replicate is shown; some compounds called inactive have numbers as strong as hits
MLL AF4-AF9 inh – MLL-AF4/AF9 protein interaction inhibition. AlphaScreen, biotin-AF4 peptide binding to FLAG-AF9. P42568. 350,000 tested, 0.47% active. inhibition, % at 10 µM;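 active means every replicate reaching a set inhibition limit, whatever the replicate mean, cut at about 25% in these data; inconclusive means mean inhibition reaches that limit but some replicates miss it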;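 further: 0% = plate neutral control median and 100% = total signal loss; the record names both 10 and 1 µM as test concentration; the first replicate is given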
Target sequence (P42568 whole entry, looked up): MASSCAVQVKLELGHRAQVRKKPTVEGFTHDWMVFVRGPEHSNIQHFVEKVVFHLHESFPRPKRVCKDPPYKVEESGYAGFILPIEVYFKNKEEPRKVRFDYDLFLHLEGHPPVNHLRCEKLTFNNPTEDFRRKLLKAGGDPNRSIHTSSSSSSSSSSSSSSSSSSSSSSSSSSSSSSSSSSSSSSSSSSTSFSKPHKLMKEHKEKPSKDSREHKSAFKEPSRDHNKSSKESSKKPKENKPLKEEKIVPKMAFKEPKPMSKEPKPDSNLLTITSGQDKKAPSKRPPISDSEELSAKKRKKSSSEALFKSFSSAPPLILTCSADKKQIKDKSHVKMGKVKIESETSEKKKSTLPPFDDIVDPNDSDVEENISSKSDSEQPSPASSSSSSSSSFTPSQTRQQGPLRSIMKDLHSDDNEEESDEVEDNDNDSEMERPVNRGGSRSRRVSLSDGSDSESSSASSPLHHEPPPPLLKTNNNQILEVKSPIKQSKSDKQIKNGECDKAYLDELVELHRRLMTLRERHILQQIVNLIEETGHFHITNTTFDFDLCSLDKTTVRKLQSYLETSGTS
RanGTP-Impb inh – inhibitors of RanGTP-importin-beta interaction, primary screen, biochemical, FRET, CFP-Ran, YFP-importin-beta, homogeneous | cell-free CFP-Ran/YFP-importin-beta FRET ratio | AID 2216 | 300,000 tested, 1.1% active | inhibition, % (no concentration beside the values);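 active means most replicates above 15%; inconclusive means exactly half above 15%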;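 further: 0% = DMSO wells and 100% = Ran loaded with GDP instead of GTP; wells of about 40 µL received 100 nL stock; the first replicate is given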
Beta cell apopt – beta cell apoptosis inhibition; AID 435005; protection from apoptosis, % (no concentration beside the values); INS-1E cytokine-induced death, ATP luminescence, 48 h; percent of positive-control rescue, neutral wells zero; 300,000 tested, 0.8% active;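 active means all replicates at 75% or more, or half of them and the mean; inconclusive means half reach 75% but not the mean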;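 further: 0% = cytokine-treated negative control wells and 100% = positive control rescue; higher means more ATP so stronger rescue from cytokine killing; wells of about 40 µL received 100 nL stock; the first replicate is given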
Bfl-1 A1 inh – inhibitors of the anti-apoptotic protein A1, read as caspase activation; caspase activation, % (no concentration beside the values); MEF A1-2A-BIM cells, Caspase-Glo 3/7 luminescence, 3 h; percent of clofoctol response, vehicle zero; 330,000 tested, 0.066% active;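 active means over half of replicate activation scores above 10%, or exactly half above 10 with the replicate mean above 10; inconclusive means replicate mean below 10 yet half the replicates above 10; inactive means over half of replicates below 10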;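 further: wells of about 30 µL received 50 nL stock; many hits fall short of the cut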
T cruzi inh – blocks replication of Trypanosoma cruzi | T. cruzi beta-gal in NIH3T3, luminescence, 90 h | inhibition, % (concentration not given with the values) | 300,000 tested, 1.4% active;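 active means mean inhibition across valid replicates above about 55%, limit read from the data; inconclusive means mean below that limit but half or more replicates reach it; inactive means mean below it, under half of replicates reach it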;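 further: signal also drops with host cell toxicity which is not excluded here; 0% = plate median of DMSO wells and 100% = zero luminescence signal; higher percent means less beta-gal luminescence so fewer parasites; stock transfer was 50 nL into about 50 µL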
Vif A3G – inhibitors of Vif binding to APOBEC3G peptide, primary screen, biochemical, TR-FRET, GST-Vif 1-94, biotin-A3G peptide, dose response retest (AID 1117319); TR-FRET GST-Vif / biotin-A3G peptide binding; higher % means a stronger effect; test concentration not given here; strong numbers were not always called active; one-dose inhibition, %; IC50 in µM for titrated hits; 260,000 tested, 0.57% active;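 active means above the screen mean plus three standard deviations and confirmed in dose response; inconclusive means results disagree or hit not tested in dose response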;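 further: Vif residues 1-94 fused to GST binding biotinylated APOBEC3G peptide 110-148; 0% = full assay without inhibitor and 100% = GST in place of GST-Vif; retest series ran down from 100 µM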
Calb FLC – C. albicans growth modulation with fluconazole | C. albicans CaCi-2 (fluconazole-resistant clinical isolate) + fluconazole, Alamar Blue growth, 48 h | growth inhibition, % (no concentration beside the values) | 300,000 tested, 0.57% active | AID 1979;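 active means most replicates above 75%; inconclusive means exactly half above 75%; inactive means most below 75%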;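 further: all wells also contain fluconazole at 8 µg/ml as a sub-toxic cotreatment; 0% = median of DMSO wells and 100% = median of geldanamycin control wells; wells of about 8 µL received 7.5 nL stock; the first replicate is given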
rRNA inh HTS OD600 – further read-out of rRNA inh HTS, marked with its call; OD600 change, %; measured here: OD600 growth;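 optical density of the mix in the first replicate; 0 = DMSO median and -100 = no signal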
rRNA inh HTS RFP – also measured in rRNA inh HTS; calls as there; RFP signal change, %; measured here: RFP humanized mutant strains;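 first replicate; 0 = DMSO median and -100 = no signal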
An asterisk follows results filed as active; ? = inconclusive; . = not tested or not shown.

SMILES	rRNA inh HTS	rRNA inh HTS OD600	rRNA inh HTS RFP	MLL AF4-AF9 inh	RanGTP-Impb inh	Beta cell apopt	Bfl-1 A1 inh	T cruzi inh	Vif A3G	Calb FLC
CC(C)Oc1ccc(C(=O)CCN2CCOCC2)cc1	15.3	-6.2	-1.3	2.7	2.7	-9.7	-0.2	9.6	.	-11.2
O=C(C1CCCC1)N1CCN(S(=O)(=O)c2cccc(Cl)c2Cl)CC1	3.3	-1.2	1.8	-1.1	-0.6	-4.5	2.3	0.6	2.4%	-10.6
Brc1ccc(Nc2c3c(nc4ncnn24)CCC3)cc1	.	.	.	.	-7.6	-3.2	-1.0	-15.0	16.5%	-7.6
O=C(Nc1ccncc1)c1cncc(Br)c1	.	.	.	.	-2.3	-3.5	-0.8	-3.5	2.1%	-14.6
Fc1ccc(CSc2nc3ncc(Br)cc3[nH]2)cc1	.	.	.	.	4.1	2.7	0.5	-9.9	-1.6%	-2.6
COc1ccc(Cc2c(O)nc(SCC(=O)NC(C)(C)C)[nH]c2=O)cc1	-0.6	3.7	-0.7	1.6	0.5	-0.9	0.1	-10.4	3.8%	-4.8
O=C(c1ccccc1)c1ccc(Oc2ccc(C(=O)O)c(C(=O)O)c2)cc1	-0.4	0.0	0.3	-4.5	0.8	3.1	1.2	-17.6	.	5.3
Cc1[nH]c2ccccc2c1C(=O)COC(=O)c1nccnc1N	12.1	-0.5	4.7	0.1	.	-4.1	-0.6	.	.	.
O=C(CN1C(=O)/C(=C/c2ccccc2F)Oc2ccccc21)N1CCN(c2ccccn2)CC1	.	.	.	.	-2.8	-1.1	1.0	11.8	0.4%	-0.6
Cc1nn(C)c(NC(=O)c2ccccc2Cl)c1Cl	12.9	7.6	1.6	-8.1	1.4	-2.6	-0.5	13.0	-13.1%	4.5
O=C(Nc1ccccc1)c1ccccc1N=Cc1cccc(O)c1	-11.9	-19.2	-5.4	-0.1	-2.7	.	-0.3	14.3	-1.3%	-5.5
COc1ccc(/C(N)=N/OC(=O)Oc2ccccc2)cc1OC	-5.5	-11.1	-6.5	-2.1	-0.2	0.4	-0.6	-13.7	11.6%	-9.3
COc1cc(NC(=O)CC(C)S(=O)(=O)c2ccc3c(c2)NC(=O)CO3)cc(OC)c1OC (centres undefined)	4.2	7.0	-0.6	-6.8	4.9	-12.0	-0.2	5.5	.	-17.9
CC(=O)C1C(c2cccc(F)c2)c2c(n[nH]c2C)CC1(C)O (centres undefined)	11.9	11.0	3.4	-0.8	-2.2	3.0	-0.5	-6.5	27.1%	3.2
Cc1nnc(Sc2nc3ccccc3o2)c2ccccc12	.	.	.	.	?	-13.7	-0.3	5.0	-1.0%	5.4
Cc1[nH]c2ccccc2c(=O)c1CN(C)Cc1ccccc1	.	.	.	.	-0.3	-4.5	-0.3	-1.6	1.2%	-3.4
CC(=O)SCC[N+](C)(C)C	.	.	.	-0.3	-0.7	2.7	1.4	-6.7	13.6%	.
O=C(NCc1ccc(N2CCCC2=O)cc1)c1cc(COc2c(F)cccc2F)on1	7.7	9.4	2.9	-1.4	0.2	12.9	-0.8	2.3	.	11.9
Cc1ccc(S(=O)(=O)NC(=NCC(=O)O)c2ccc(F)cc2)cc1	.	.	.	.	5.2	-3.3	1.7	-13.0	-2.7%	-29.0
O=S(=O)(NCc1ccccc1)c1cccc2nsnc12	-2.1	-3.8	-3.5	4.2	-2.3	-3.8	0.5	-15.1	11.7%	4.8
CC(C)NC(=O)CN1CCC(c2ccccc2)C(O)C1 (centres undefined)	-21.6	-18.4	-4.5	-3.5	1.4	2.4	-0.7	-14.9	5.1%	-9.0
Cc1ccc(CNC(=O)CN2C(=O)CSc3ccc(S(=O)(=O)N4CCCCC4)cc32)cc1	-23.5	-20.8	-1.5	-4.7	2.9	-1.8	2.5	0.9	.	-7.5
CCn1nc(C)cc1Nc1ccccc1	.	.	.	.	37.3*	-2.6	0.8	-4.5	23.2%	-1.4
COc1ccc(C2/C(=C(/O)c3ccccc3)C(=O)C(=O)N2CC(C)O)c(OC)c1 (centres undefined)	.	.	.	.	-0.2	-1.3	-1.2	-17.1	3.3%	-4.3
CCOc1ncc(S(=O)(=O)N2CCN(CC)CC2)cc1C(=O)O	9.6	10.2	2.6	1.5	3.1	-3.7	0.6	-6.3	.	-3.3
CC(=O)Nc1ccc(NC(=O)COC(=O)CCc2nc3ccccc3s2)cc1	1.0	14.6	0.2	0.0	-1.7	2.3	1.4	-4.0	-15.0%	?
COc1cc(CN/C(C)=C(\C#N)C(N)=O)cc(OC)c1OC	.	.	.	.	-1.8	4.4	-1.0	-22.3	-3.3%	3.0
O=C(NNC(=O)c1ccccc1F)c1ccc(S(=O)(=O)N2CCCC2)cc1	2.4	5.6	0.0	-1.3	.	-6.1	-1.3	.	-5.2%	.
Cc1ccc(Cl)cc1N1CCN(C(=O)Cc2c(C(=O)O)[nH]c3ccccc23)CC1	-30.4*	-16.4*	-7.1*	-4.0	0.2	-2.4	-0.1	-1.9	-0.1%	12.0
C/C(=N\NS(=O)(=O)c1ccc(C)c([N+](=O)[O-])c1)c1ccc2c(c1)OCO2	11.4	-2.6	-4.4	-3.6	-0.5	-1.8	-0.1	-13.3	0.6%	0.2

Pulled by compound from above, five records:
SMILES	rRNA inh HTS	rRNA inh HTS OD600	rRNA inh HTS RFP	MLL AF4-AF9 inh	RanGTP-Impb inh	Beta cell apopt	Bfl-1 A1 inh	T cruzi inh	Vif A3G	Calb FLC
CC(C)NC(=O)CN1CCC(c2ccccc2)C(O)C1 (centres undefined)	-21.6	-18.4	-4.5	-3.5	1.4	2.4	-0.7	-14.9	5.1%	-9.0
C/C(=N\NS(=O)(=O)c1ccc(C)c([N+](=O)[O-])c1)c1ccc2c(c1)OCO2	11.4	-2.6	-4.4	-3.6	-0.5	-1.8	-0.1	-13.3	0.6%	0.2
COc1cc(CN/C(C)=C(\C#N)C(N)=O)cc(OC)c1OC	.	.	.	.	-1.8	4.4	-1.0	-22.3	-3.3%	3.0
CC(=O)Nc1ccc(NC(=O)COC(=O)CCc2nc3ccccc3s2)cc1	1.0	14.6	0.2	0.0	-1.7	2.3	1.4	-4.0	-15.0%	?
Cc1ccc(Cl)cc1N1CCN(C(=O)Cc2c(C(=O)O)[nH]c3ccccc23)CC1	-30.4*	-16.4*	-7.1*	-4.0	0.2	-2.4	-0.1	-1.9	-0.1%	12.0

The list continues.
SMILES	rRNA inh HTS	rRNA inh HTS OD600	rRNA inh HTS RFP	MLL AF4-AF9 inh	RanGTP-Impb inh	Beta cell apopt	Bfl-1 A1 inh	T cruzi inh	Vif A3G	Calb FLC
Cc1cccc(C)c1NC(=O)CCCn1nc(C)c2c(C)n(-c3ccccc3)nc2c1=O	2.4	3.5	-1.7	-1.9	-2.5	-3.4	-0.1	-6.3	.	-1.0
COc1cc2c(cc1NC(=O)CSc1nnc(COc3ccc(Cl)cc3)n1C)oc1ccccc12	.	.	.	.	3.2	-1.3	1.0	43.0	-1.7%	19.8
O=C(CCC(=O)c1cccs1)Nc1nc2ccccc2s1	-21.4*	-16.4*	-0.6*	.	5.4	-1.2	-0.2	-3.4	.	-7.6
NC(=S)N/N=C/c1cccc(O)c1O	3.0	1.9	-2.0	-3.6	1.5	40.9	0.1	-11.5	?	27.2
CC(CCc1ccccc1)OS(N)(=O)=O (centres undefined)	-4.2	11.9	-1.8	-0.2	0.0	.	0.9	3.0	.	0.7
COc1cccc(N2CC(C(=O)Nc3nnc(SCCC4OCCO4)s3)CC2=O)c1 (centres undefined)	1.8	-4.5	1.5	-2.3	1.5	-7.1	1.6	-5.5	-0.3%	2.7
CN(C)S(=O)(=O)c1ccc(C(=O)NC(=O)CSc2nnnn2C)cc1	17.6	12.6	-1.1	2.7	.	-3.4	-0.1	.	3.3%	.
O=C(N/C(=C/C=C/c1ccccc1)C(=O)N1CCOCC1)c1ccccc1Br	-7.2	-8.5	5.2	4.4	5.4	2.7	-1.3	1.0	-7.2%	5.0
Cc1ccc(C)c(OCC(=O)N2CCN(C(=O)c3ccco3)CC2)c1	4.1	13.9	8.0	-4.4	4.3	0.6	0.4	-1.8	-2.2%	23.6
CC(=O)c1cc2c(cc1NC(=O)c1ccc(C)cc1)OCCO2	-13.6	5.9	-4.2	-5.1	-2.7	0.4	0.3	22.0	-8.3%	17.7
NC(=O)N/N=C/c1ccc2cccc(OCc3ccccc3)c2n1	-17.1	-2.7	1.1	0.0	5.8	-3.5	0.4	7.4	-3.0%	-8.3
CC(=O)Nc1ccc(S(=O)(=O)NCc2ccc3[nH]c(C)cc3c2)cc1	-2.8	-3.7	-9.8	6.4	4.1	-0.6	0.1	4.4	0.8%	5.1
O=C(NC1CCSc2ccccc21)c1ccccc1Br (centres undefined)	2.8	13.0	1.4	-4.5	5.4	-1.9	0.1	-1.8	-7.0%	-30.2
Cc1ccc(S(=O)(=O)N(C)CC(=O)NNC(=O)CCC(=O)c2ccc(F)cc2)cc1	-1.7	-4.6	-1.3	6.0	.	-6.9	0.3	.	6.6%	.
Cc1ccc(N2C(=O)C(CC(=O)Nc3cccc(F)c3)N(C3CC3)C2=O)cc1 (centres undefined)	5.4	7.8	-0.9	-6.1	0.9	0.0	-0.4	-3.0	2.9%	-6.8
O=C(Cn1c(=O)oc2ccccc21)N(Cc1ccccc1)C1CCS(=O)(=O)C1 (centres undefined)	.	.	.	.	?	-3.3	0.8	-4.8	-9.0%	6.6
O=c1cnnc(N/N=C/C2CC=CCC2)[nH]1 (centres undefined)	18.8	22.2	-3.2	-1.9	0.0	-2.6	-0.3	-6.2	3.9%	4.9
O=C(O)CC1S/C(=N/N=C/c2ccc([N+](=O)[O-])cc2)N(c2ccc(O)cc2)C1=O (centres undefined)	12.9	3.0	0.4	2.7	6.7	.	0.3	-5.9	5.6%	-4.4
O=C(/C=C/c1ccc(F)cc1)Nc1ccc2[nH]c(=O)[nH]c2c1	1.7	-1.5	-3.8	3.1	?	3.6	-0.1	-2.8	.	0.5
COc1ccc([C@@H]2[C@@H]3C(=O)N(C(C)(C)C)C(=O)[C@@H]3[C@]3(Cc4ccccc4)C(=O)N(c4ccc(C)cc4)C(=O)N23)cc1	7.3	4.6	-5.2	-1.3	?	-2.2	0.2	15.0	.	-6.0
CNC(=O)c1snnc1-c1ccccc1	.	.	.	.	0.8	2.7	0.3	-6.4	12.3%	-1.9
CC1(C)CC(=O)C2=C(C1)OC(c1ccc(O)cc1)C(C#N)=C2N (centres undefined)	-2.2	-2.6	-1.1	-4.4	-0.3	-2.0	0.0	-2.2	6.9%	6.1

Not all compounds are listed (hit frequency here may not be typical).
